Assay outcomes (PubChem BioAssay)
rRNA inh HTS – inhibits bacterial ribosomal RNA function over humanized ribosomes; E. coli WT GFP vs humanized-ribosome RFP mutants, fluorescence, 24 h; active compounds read low; DMSO median 0, no signal -100; GFP signal change (wild-type ribosome), % (test concentration not listed); actives 1.6% (n = 350,000);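 active = significant combined selectivity score with lowered wild-type GFP, culture density cut under 30%, mutant RFP and density less affected; inactive = any of these conditions unmet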; note: one replicate is shown; some compounds called inactive have numbers as strong as hits
AF4-AF9 inh – inhibitors of human MLL-AF4/AF9 interaction; AID 651704; AlphaScreen, biotin-AF4 peptide binding to FLAG-AF9; P42568; inhibition, % at 10 µM; actives 0.47% (n = 350,000);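 active = every replicate reaching a set inhibition limit, whatever the replicate mean, cut at about 25% in these data; inconclusive = mean inhibition reaches that limit but some replicates miss it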;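 note: 0% = plate neutral control median and 100% = total signal loss; the record names both 10 and 1 µM as test concentration; the first replicate is given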
Target sequence (P42568 whole entry, looked up): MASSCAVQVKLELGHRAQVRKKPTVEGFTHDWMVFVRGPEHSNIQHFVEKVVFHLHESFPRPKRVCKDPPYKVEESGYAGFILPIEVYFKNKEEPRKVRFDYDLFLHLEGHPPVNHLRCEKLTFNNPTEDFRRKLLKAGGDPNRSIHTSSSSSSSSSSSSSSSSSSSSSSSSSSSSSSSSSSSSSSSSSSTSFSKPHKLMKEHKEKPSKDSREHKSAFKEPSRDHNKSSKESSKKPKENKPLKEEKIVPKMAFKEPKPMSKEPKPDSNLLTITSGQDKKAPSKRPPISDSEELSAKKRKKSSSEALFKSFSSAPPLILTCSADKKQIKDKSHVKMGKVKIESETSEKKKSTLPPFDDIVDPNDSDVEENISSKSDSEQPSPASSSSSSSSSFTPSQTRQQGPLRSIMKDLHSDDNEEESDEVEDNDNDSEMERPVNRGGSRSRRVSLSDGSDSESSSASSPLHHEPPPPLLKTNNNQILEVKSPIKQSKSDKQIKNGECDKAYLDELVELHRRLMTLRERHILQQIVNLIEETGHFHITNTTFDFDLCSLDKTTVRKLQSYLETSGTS
FGF22 binding – FGF22 (human) thermal shift binding; actives 1.5% (n = 340,000); calls only at 9.99 µM; recombinant FGF22 thermal shift, SYPRO orange fluorescence; percent of sucrose octasulfate shift, DMSO zero; AID 651658;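 active = melting point raised past a set limit in the mean and every replicate; inconclusive = no clear call; three in four hits are not shown here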
Target sequence (Q9HCT0 whole entry, looked up): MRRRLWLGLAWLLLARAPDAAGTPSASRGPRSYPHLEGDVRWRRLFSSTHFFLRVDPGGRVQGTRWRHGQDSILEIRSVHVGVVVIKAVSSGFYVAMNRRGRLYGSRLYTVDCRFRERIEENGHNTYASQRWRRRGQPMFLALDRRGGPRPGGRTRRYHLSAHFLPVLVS
rRNA inh HTS OD600 – recorded beside rRNA inh HTS, whose call it bears; OD600 change, %; measured here: OD600 growth;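 optical density of the mix in the first replicate; 0 = DMSO median and -100 = no signal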
rRNA inh HTS RFP – recorded beside rRNA inh HTS, whose call it bears; RFP signal change, %; measured here: RFP humanized mutant strains;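 first replicate; 0 = DMSO median and -100 = no signal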
* marks the source's active call; other numbers are inactive results; i = inactive; ? = inconclusive; . = no result given; + = active, no number; & = joins results of further samples. The list is partial; the hit share may differ from the screen's.

entry	Molecule	rRNA inh HTS	rRNA inh HTS OD600	rRNA inh HTS RFP	AF4-AF9 inh	FGF22 binding
1	COc1ccccc1CNC(=O)C[C@@H]1C[C@@H]2c3cc(NC(=O)Nc4ccc(C(F)(F)F)cc4)ccc3O[C@@H]2[C@H](CO)O1	-4	6	-1.0	-1.9	i
2	COc1ccc(NC(=O)CSc2nnnn2-c2cccc(OC)c2)cc1	15	12	1.3	-4.7	i
3	COc1cccc(CNC(=O)[C@H]2CCCN2C(=O)[C@H]2CCCN2)c1	21	23	2.5	-1.5	i
4	C[C@@H]1CCCCO[C@@H](CN(C)S(=O)(=O)c2ccc(Cl)cc2)[C@@H](C)CN([C@@H](C)CO)C(=O)c2cc(NS(=O)(=O)c3ccccc3)ccc2O1	2	-3	-3.8	-3.2	i
5	CNC(=O)C[C@H]1CC[C@H]2[C@@H](COc3ccc(NC(=O)Nc4cccc(C)c4)cc3C(=O)N2C)O1	8	0	1.0	-1.4	i
6	O=C(Nc1ccccc1)N1CCCCN2[C@H](CO)[C@@H](c3ccc(C#Cc4ccccn4)cc3)[C@H]2C1	3	25	2.8	3.5	i
7	O=C(O)C1C2CC(C(Br)C2Br)C1C(=O)O (stereo not given)	12	21	-4.0	-2.6	i
8	COCCNc1nc2cc(-c3ccsc3)sc2c(=O)n1C	5	11	-1.9	-6.3	i
9	C[C@H]1CCCCO[C@H](CN(C)C(=O)Nc2ccc(C(F)(F)F)cc2)[C@@H](C)CN([C@@H](C)CO)C(=O)c2cc(NC(=O)NC3CCCCC3)ccc2O1	2	3	-3.7	-3.1	i
10	Cc1csc(=O)n1CCC(=O)OCC(=O)NNC(=O)c1ccc(Cl)cc1	10	15	2.5	-2.1	i
11	COc1ccccc1CCn1cnc(-c2ccc(Br)cc2)c1CC(C)C	-18	-52	19	8.6	i
12	CCCN(C)C[C@@H]1Oc2cc(-c3ccncc3)ccc2S(=O)(=O)N([C@@H](C)CO)C[C@@H]1C	2	15	0.9	-1.0	i
13	C[C@H](CO)N1C[C@H](C)[C@H](CN(C)C(=O)C2CCCCC2)Oc2cc(-c3ccccc3)ccc2S1(=O)=O	-14	-25	4.5	3.6	i
14	CC(C)NC(=O)Nc1ccc2c(c1)CC(=O)N([C@@H](C)CO)C[C@@H](C)[C@H](CN(C)C(=O)Nc1ccccc1)O2	2	11	-1.8	-0.7	i
15	CCC(=O)N(C)C[C@@H]1Oc2cc(C#CCN(C)C)ccc2S(=O)(=O)N([C@@H](C)CO)C[C@H]1C	6	6	0.2	-1.0	i
16	CN(C)C(=O)C[C@H]1CC[C@@H](NS(=O)(=O)c2ccccc2)[C@@H](CO)O1	-1	-2	0.2	-14	i
17	COc1ccc(NC(=O)Nc2ccc3c(c2)C(=O)N([C@H](C)CO)C[C@H](C)[C@H](CN(C)C(=O)Nc2ccc(OC)cc2)OCCCC[C@H](C)O3)cc1	0	4	1.0	-11	i
18	COc1ccc(S(=O)(=O)N(C)C[C@@H]2OCCCC[C@@H](C)Oc3ccc(NS(=O)(=O)c4c(C)noc4C)cc3C(=O)N([C@@H](C)CO)C[C@H]2C)cc1	-2	-1	2.6	-4.1	i
19	COc1cc2[nH]c(=S)nc(NCc3ccccn3)c2cc1OC	14	18	4.0	-1.8	i
20	COc1ccc(C(=O)N2CCCC(C(N)=O)C2)cc1S(=O)(=O)N1CCOCC1 (stereo not given)	9	9	-2.4	-1.9	i
21	CC(C)CC#Cc1cnc2c(c1)C(=O)N([C@@H](C)CO)C[C@H](C)[C@H](CN(C)C(=O)c1ccc(F)cc1)O2	3	2	-1.8	-0.2	i
22	COCc1cn(CC[C@@H]2CC[C@@H](NC(=O)CCN3CCCCC3)[C@@H](CO)O2)nn1	1	4	-2.5	-10	i
23	O=C(O)C[C@H]1C[C@H]2c3cc(NC(=O)Nc4ccccc4F)ccc3O[C@H]2[C@@H](CO)O1	5	14	-3.2	-1.8	i
24	COc1ccc2c3c([nH]c2c1)[C@H](CO)N(S(C)(=O)=O)CC31CN(C(=O)c2ccccc2)C1	3	16	-2.7	-2.6	i
25	CCOC(=O)[C@]12CCC=C1N(Cc1cccc3ccccc13)C(=O)[C@H](CC(=O)NCc1cccs1)C2	-10	-7	-0.6	5.0	i
26	C[C@@H]1CCCCO[C@@H](CN(C)C)[C@@H](C)CN([C@@H](C)CO)C(=O)c2cc(NC(=O)CCC(F)(F)F)ccc2O1	2	2	0.3	-2.9	i
27	C[C@@H]1CN([C@H](C)CO)C(=O)c2cc(C3=CCCC3)cnc2O[C@H]1CN(C)C(=O)Nc1cccc(F)c1	-1	-7	-1.6	2.3	i
28	C[C@@H]1CN([C@@H](C)CO)C(=O)c2cc(NC(=O)Nc3cccc4ccccc34)ccc2O[C@H]1CN(C)Cc1ccc(Oc2ccccc2)cc1	4	7	2.7	4.1	i
29	CCCNC(=O)N(C)C[C@H]1Oc2cc(-c3ccccc3F)ccc2S(=O)(=O)N([C@@H](C)CO)C[C@@H]1C	-8	-24	2.7	0.0	i
30	C[C@H]1CN([C@@H](C)CO)C(=O)Cc2cc(NC(=O)CCN3CCOCC3)ccc2O[C@@H]1CN(C)CC1CCCCC1	3	4	-0.9	-0.2	i
31	C[C@@H]1CN([C@H](C)CO)C(=O)c2cc(NS(=O)(=O)c3ccc(F)cc3)ccc2O[C@@H]1CN(C)Cc1ccc(-c2ccccc2)cc1	7	-2	17	3.3	i
32	C[C@H]1CN([C@@H](C)CO)C(=O)c2cc(NS(=O)(=O)c3cn(C)cn3)ccc2O[C@H]1CN(C)S(=O)(=O)c1cccs1	3	8	0.1	-2.4	i
33	Cc1ccc(S(=O)(=O)CCC(=O)OCC(=O)Nc2cc(S(=O)(=O)N3CCOCC3)ccc2Cl)cc1	-2	-3	1.8	0.0	i
34	C[C@H](CO)N1C[C@H](C)[C@@H](CN(C)C)Oc2c(NS(C)(=O)=O)cccc2C1=O	4	3	-1.1	-2.9&-1.1	i
35	FC(F)(F)c1cccc(CC2CN(Cc3ccccc3)Cc3ccccc3N2c2cc(Cl)cc(Cl)c2)c1 (stereo not given)	105	-4	47	-14	.
36	CC(=O)Nc1cc2nc3ccccc3oc-2cc1=O	6	6	-1.0	-1.7	i
37	CCCN(C)C[C@@H]1Oc2cc(-c3ccc(C)cc3)ccc2S(=O)(=O)N([C@@H](C)CO)C[C@@H]1C	2	2	2.1	-5.5	i
38	O=C1NC[C@H](CCCCN2CCN(CCc3ccc(O)cc3)C(=O)C2=O)N(CCC2CCCCC2)C1=O	32	12	2.2	1.0	i
39	O=C(Cc1ccncc1)NCC[C@H]1CC[C@H](NC(=O)C2CCCC2)[C@H](CO)O1	3	-14	1.9	9.7	i
40	CCC(CCNC(=O)c1ccccc1)(CCNC(=O)c1ccccc1)[N+](=O)[O-]	-5	1	8.3	-1.5	i

41	C[C@H]1CN([C@@H](C)CO)C(=O)c2cc(NS(=O)(=O)c3ccc(F)cc3)ccc2O[C@@H]1CN(C)C(=O)Nc1ccc2c(c1)OCO2
42	C[C@@H]1CN([C@@H](C)CO)C(=O)Cc2cc(NS(=O)(=O)c3ccccc3)ccc2O[C@@H]1CN(C)Cc1ccc(-c2ccccc2)cc1
43	COc1cccc(CNC[C@H]2O[C@@H](n3ccc(N)nc3=O)[C@H](O)[C@@H]2O)c1OCc1ccc(F)cc1Cl
44	C[C@@H]1CN([C@H](C)CO)C(=O)Cc2cc(NC(=O)C3CC3)ccc2O[C@H]1CN(C)S(=O)(=O)c1ccccc1
45	O=C(OC12CC3CC(CC(C3)C1)C2)c1ccc(NCc2cc(O)ccc2O)cc1
46	CN(C)CC(=O)Nc1ccc2c(c1)[C@H]1C[C@@H](CC(=O)NCC3CC3)O[C@H](CO)[C@H]1O2

| screen / no. | 41 | 42 | 43 | 44 | 45 | 46 |
| --- | --- | --- | --- | --- | --- | --- |
| rRNA inh HTS | 9 | 4 | 4 | 6 | -29 | 4 |
| rRNA inh HTS OD600 | 7 | 3 | 0 | 2 | -47 | 13 |
| rRNA inh HTS RFP | 2.4 | -1.9 | -1.8 | -0.8 | 2.8 | -1.1 |
| AF4-AF9 inh | -0.5 | -2.9 | 0.5 | -0.3 | ? | -0.7 |
| FGF22 binding | i | i | i | i | i | + |

47	COCCNC(=O)C[C@H]1CC[C@H]2[C@@H](COC[C@@H](O)CN2Cc2cccc(-c3ccncc3)c2)O1
48	CCS(=O)(=O)N1CC2(CN(Cc3ccc4c(c3)OCO4)[C@@H](CO)c3c2c2ccc(OC)cc2n3C)C1
49	CCC(=O)N(C)C[C@H]1Oc2ncc(-c3ccccc3F)cc2C(=O)N([C@@H](C)CO)C[C@@H]1C
50	CC[C@@H]1Cc2[nH]c(=O)[nH]c(=O)c2[C@H](c2ccc(Cl)cc2)O1
51	COCC(=O)N1C[C@@H]2[C@H](c3ccccc31)[C@H](CO)N2C(=O)C1CCCC1
52	N#C[C@H]1[C@H](c2ccc(-c3ccc(F)cc3)cc2)[C@H](CO)N1C(=O)Cc1ccccc1

| screen / no. | 47 | 48 | 49 | 50 | 51 | 52 |
| --- | --- | --- | --- | --- | --- | --- |
| rRNA inh HTS | 3 | -12 | -3 | 12 | 3 | -26 |
| rRNA inh HTS OD600 | -10 | -21 | 10 | 7 | 5 | -61 |
| rRNA inh HTS RFP | 0.8 | -1.2 | -3.4 | -0.5 | 0.2 | 1.7 |
| AF4-AF9 inh | -14 | 0.9 | -4.1 | -1.4 | -3.4 | -2.4 |
| FGF22 binding | i | i | i | i | i | i |

53	CC1(C(=O)NCc2cccc(C(F)(F)F)c2)CCN1Cc1ccc(-c2ccccc2)o1 (stereo not given)
54	C[C@H](CO)N1C[C@H](C)[C@H](CN(C)C(=O)Nc2ccc(C(F)(F)F)cc2)Oc2ncc(-c3ccc(C#N)cc3)cc2C1=O
55	COc1ccc(NC(=O)Nc2ccc3c(c2)[C@@H]2C[C@H](CC(=O)NC4CCCC4)O[C@H](CO)[C@@H]2O3)cc1
56	CO[C@@H]1CN(C)C(=O)c2ccc(NC(=O)NC3CCCCC3)cc2OC[C@@H](C)N(CCc2ccccc2)C[C@H]1C
57	C[C@@H]1CCCCO[C@H](CN(C)Cc2ccncc2)[C@@H](C)CN([C@@H](C)CO)C(=O)c2cc(NC(=O)Nc3ccc4c(c3)OCO4)ccc2O1
58	C[C@@H]1CN([C@H](C)CO)C(=O)c2cc(NC(=O)Cc3ccccc3)ccc2O[C@H]1CN(C)CC1CC1

| screen / no. | 53 | 54 | 55 | 56 | 57 | 58 |
| --- | --- | --- | --- | --- | --- | --- |
| rRNA inh HTS | -8 | -5 | 0 | -1 | -1 | 6 |
| rRNA inh HTS OD600 | -23 | -11 | 7 | -4 | -4 | 6 |
| rRNA inh HTS RFP | -2.3 | 1.2 | 1.7 | 0.8 | -1.8 | 1.2 |
| AF4-AF9 inh | -1.5 | -0.2 | -1.4 | 1.2 | 14 | -1.3 |
| FGF22 binding | i | i | i | i | i | i |

59	O=C(O)c1ccccc1C1c2ccccc2Oc2ccccc21
60	COc1ccc(S(=O)(=O)Nc2ccc3c(c2)C(=O)N([C@@H](C)CO)C[C@H](C)[C@@H](CN(C)C(=O)NC(C)C)OCCCC[C@H](C)O3)cc1
61	COc1ccc(CN2[C@H](CO)[C@H]3c4ccccc4N(C(=O)Nc4ccccc4)C[C@H]32)cc1
62	N#Cc1ccc(S(=O)(=O)N2CCCCC2c2cc(C(=O)N3CCOCC3)no2)cc1 (stereo not given)
63	COc1ccc(CN(C)C[C@H]2Oc3c(NC(=O)Nc4ccccc4)cccc3C(=O)N([C@@H](C)CO)C[C@H]2C)cc1
64	Nc1nc2c(ncn2[C@@H]2O[C@H](CNC(=O)[C@H](N)Cc3cncn3COCc3ccccc3)[C@@H](O)[C@H]2O)c(=O)[nH]1
65	CO[C@@H]1CN(C)C(=O)c2cc(NC(=O)NC(C)C)ccc2OC[C@H](C)N(C)C[C@H]1C

| screen / no. | 59 | 60 | 61 | 62 | 63 | 64 | 65 |
| --- | --- | --- | --- | --- | --- | --- | --- |
| rRNA inh HTS | -13 | 0 | 1 | 9 | 0 | -1 | 0 |
| rRNA inh HTS OD600 | -27 | -2 | -9 | 10 | -2 | 8 | 4 |
| rRNA inh HTS RFP | -8.4 | 2.1 | 1.6 | -0.8 | 1.3 | -4.1 | -0.6 |
| AF4-AF9 inh | 1.0 | 4.6 | 0.6 | 1.6 | -3.7 | 1.1 | -1.1 |
| FGF22 binding | i | i | i | i | i | i | i |

Some of these compounds in order of heavy-atom count, lowest first.
62	N#Cc1ccc(S(=O)(=O)N2CCCCC2c2cc(C(=O)N3CCOCC3)no2)cc1 (stereo not given)
61	COc1ccc(CN2[C@H](CO)[C@H]3c4ccccc4N(C(=O)Nc4ccccc4)C[C@H]32)cc1
60	COc1ccc(S(=O)(=O)Nc2ccc3c(c2)C(=O)N([C@@H](C)CO)C[C@H](C)[C@@H](CN(C)C(=O)NC(C)C)OCCCC[C@H](C)O3)cc1

| screen / no. | 62 | 61 | 60 |
| --- | --- | --- | --- |
| rRNA inh HTS | 9 | 1 | 0 |
| rRNA inh HTS OD600 | 10 | -9 | -2 |
| rRNA inh HTS RFP | -0.8 | 1.6 | 2.1 |
| AF4-AF9 inh | 1.6 | 0.6 | 4.6 |
| FGF22 binding | i | i | i |
